Sa growth inh: blocks Staphylococcus aureus growth. 0.53% of 170,000 active. relative growth, % (test concentration not listed). S. aureus RN4220 growth, OD600, 20 h, 42 °C; stronger effect = lower value;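 active = growth at 42 °C up to 50% and 20 or more points under that at 30 °C, or under 10% at both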;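 also: 300 nL library stock went into each well; scaled to the means of positive and negative controls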
HCMV NEC inh: disrupts HCMV UL50-UL53 complex binding; HTRF UL50-UL53 interaction, normalized percent inhibition; inhibition, % (no concentration beside the values); 0.15% of 190,000 active;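 active = both replicates at 50% or more, plus weaker picks with an unusually low signal ratio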;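 also: stock transfer was 100 nL into about 20 µL; 0% = negative control wells and 100% = wells with untagged competitor protein; inactives centre near -12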
GIV-Gai inh: blocks GIV peptide binding to rat Galpha-i3. P08753. Galpha-i3/FITC-GIV peptide fluorescence polarization, 90 min; stronger effect = lower value; scaled: aluminum fluoride 0%, vehicle 100%. percent of control (FP), % (test concentration not listed). 0.42% of 210,000 active. AID 1224905;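 active = replicate mean at 85% of control or lower, very high polarization wells dropped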;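 also: wells of about 15 µL received 100 nL stock; the first replicate is given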
Target sequence (P08753 whole entry, looked up): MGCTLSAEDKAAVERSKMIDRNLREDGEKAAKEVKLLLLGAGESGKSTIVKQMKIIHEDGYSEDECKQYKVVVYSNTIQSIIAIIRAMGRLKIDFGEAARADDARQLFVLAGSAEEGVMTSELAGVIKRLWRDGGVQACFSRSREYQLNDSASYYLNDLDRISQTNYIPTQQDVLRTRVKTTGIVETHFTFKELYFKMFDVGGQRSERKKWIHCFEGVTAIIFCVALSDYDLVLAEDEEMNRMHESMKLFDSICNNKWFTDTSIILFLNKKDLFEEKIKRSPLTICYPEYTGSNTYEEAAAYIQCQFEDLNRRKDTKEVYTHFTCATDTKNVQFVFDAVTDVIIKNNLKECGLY
Sa growth inh second temp: further read-out of Sa growth inh, marked with its call; relative growth, %; measured here: growth at 30 °C;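 optical density after 20 h as mean of two plates; 100% = untreated growth and lower means inhibition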
Starred values were filed as active, the others as inactive; . = not tested or not shown; & = joins results of further samples.

SMILES	Sa growth inh	Sa growth inh second temp	HCMV NEC inh	GIV-Gai inh
CC(=O)N1N=C2c3ccccc3CCC2C1c1cccs1 (stereo unspecified)	113.7	72.7	9.9	101.8
O=C(Cn1ncc2ccc(Cl)cc21)N1CCCCC1	98.7	84.8	.	101.0
CC(=O)N1c2ccc(S(=O)(=O)N3CCC(C(=O)N4CCN(c5cc(Cl)ccc5C)CC4)CC3)cc2CC1C (stereo unspecified)	93.9	85.7	-35.7	102.0
COc1ccc(NC(=O)c2cccnc2N2CCCC2)cc1	98.3	94.5	14.8	104.1
CCn1nc(C)c(CCN(C)C(=O)NCC(C)C)c1C	.	.	-13.5	102.9
CCCCCc1ccc(-c2ccc(C(=O)O)cc2)nc1	82.5	71.0	-1.1	104.2
CCN(CC)c1ccc2nnc(CCC(=O)N3CCCC3)n2n1	93.8	97.0	-5.0	104.3
Cc1nc(SCC(=O)NC2CCCCC2)c2c3c(sc2n1)CCCC3	.	.	3.0	107.6
Cc1cc(Nc2ccccc2)n(-c2ccc(C(=O)O)cc2)n1	94.6	89.6	-0.1	.
COC(=O)C(O)(CC(=O)Nc1ccc(OC(F)(F)F)cc1)C(F)(F)F (stereo unspecified)	94.8	102.5	2.8	101.1
O=c1[nH]c2cc(-c3noc(COc4ccc(F)cc4)n3)ccc2n1C1CCCC1	.	.	3.5	101.8
CN(CC(=O)Nc1cc(F)ccc1F)C(=O)c1ccc2c(c1)nnn2C	.	.	-15.7	101.7
COc1cc(C2CC(=O)Nc3nc(N)[nH]c(=O)c32)ccc1OCc1ccccc1F (stereo unspecified)	.	.	-22.1	98.8
CC(C)CNC(=O)c1ccc2c(=O)n(CC(C)C)c3nn(CC(=O)NC(C)(C)C)c(=O)n3c2c1	.	.	-11.2	107.8
CCOC(=O)C1CCN(C(=O)c2cc3cc(OCC)ccc3n2C)CC1	.	.	-3.6	94.7
O=C(O)c1cccc(NCc2ccc(Cl)cc2)c1	160.9	105.5	-1.8	.
Cc1cn(CCOc2ccc(Cl)cc2)c(=O)[nH]c1=O	104.2	88.0	-11.6	.
CCc1ccc(CN2C(=O)c3ccccc3C2C(=O)NCC2CCCO2)cc1 (stereo unspecified)	98.4	81.9	.	102.5
Cc1ccc2c(c1)N(C(=O)CCC(=O)NCc1ccccc1Cl)CC(C)O2 (stereo unspecified)	85.3	90.1	-1.4	99.6
Cc1ccc(-c2nc3sc4c(c3c(=O)[nH]2)CCCC4)cc1	.	.	-7.2	100.9
O=C(Cc1ccccc1)NN1C(=O)CSC1=S	86.3	71.9	-28.8	97.1
Cc1ccc2c(=O)cc(C(=O)Nc3sc4c(c3C(=O)NCC3CCCO3)CCCC4)oc2c1 (stereo unspecified)	110.7	91.7	-5.6	106.4
COc1cc(C(=O)O)cc2c1OC(C)C2 (stereo unspecified)	97.5	87.3	-3.6	.
O=c1[nH]c(SCc2c(F)cccc2Cl)nc2c1CCC2	107.8	89.7	-16.2	103.6
COc1ccc(OC)c(C(c2c(O)[nH]c(=O)[nH]c2=O)N(Cc2ccccc2)C(C)C)c1 (stereo unspecified)	99.3	96.9	6.8	110.1

Reprinted at random: two records from the list, in no set order.
SMILES	Sa growth inh	Sa growth inh second temp	HCMV NEC inh	GIV-Gai inh
COc1cc(C2CC(=O)Nc3nc(N)[nH]c(=O)c32)ccc1OCc1ccccc1F (stereo unspecified)	.	.	-22.1	98.8
CC(C)CNC(=O)c1ccc2c(=O)n(CC(C)C)c3nn(CC(=O)NC(C)(C)C)c(=O)n3c2c1	.	.	-11.2	107.8

(more compounds)
SMILES	Sa growth inh	Sa growth inh second temp	HCMV NEC inh	GIV-Gai inh
CCS(=O)(=O)N1CC(=O)N(c2cc(C)ccc2C)C(C)(C(=O)NC2CCCCC2)C1 (stereo unspecified)	110.6	99.0	.	105.1
O=C1OC(c2ccc(O)cc2)(c2ccc(O)cc2)c2ccccc21	100.4	90.4	13.6	.
Cc1ccc(CNC(=O)CCCn2ncc3ccc(C)cc32)cc1	.	.	-11.6	107.3
O=C1C2C(C(=O)N1c1ccccc1)N1CCCN1C2c1ccccc1 (stereo unspecified)	90.2	80.7	-53.0	94.2
COc1ccc(OC)c(C2CC(=O)Nc3c2c(=O)[nH]c2ncnn32)c1 (stereo unspecified)	101.5	96.5	0.6	98.5
O=C(NCc1ccc2c(c1)OCO2)c1ccccc1Cl	122.6	97.4	-2.6	108.4
CCc1ccc2nc3sc(C(N)=O)c(N)c3cc2c1	89.0	100.8	-14.9	113.9
CCc1ccc(NC(=O)c2ccc(N3CCCS3(=O)=O)cc2)cc1	104.6	91.1	-12.4	109.0&99.1
CCCC12CN3CC(CCC)(CN(C1)C3c1ccccc1O)C2=O (stereo unspecified)	95.6	79.7	-14.1	115.1
CCOc1cc(CNCCSc2nnnn2C)cc(Cl)c1OCc1ccc(F)cc1	.	.	-18.7	99.6
CCN(CC)c1ncnc2sccc12	75.5	83.0	-7.9	104.4
CC(=O)c1ccc(NC(=O)CSc2c(C(C)C)cnc3c2c(=O)n(C)c(=O)n3C)cc1	87.8	89.4	.	102.5
COc1ccc(CC(=O)NCCc2nc(-c3ccc(OC)cc3)n[nH]2)cc1	.	.	-14.6	97.6
O=C(CNCC1CCCO1)N1CCCC1 (stereo unspecified)	74.0	88.5	3.2	100.5
COc1ccc(C)cc1CC(=O)O	101.2	99.0	-9.8	.
CC(NC(=O)CSc1ncnc2ccccc12)C1CC2CCC1C2 (stereo unspecified)	136.9	83.6	-23.0	.
OC(CNCCNc1nccc(C(F)(F)F)n1)c1ccccc1 (stereo unspecified)	86.7	95.4	-0.2	109.7
O=C(O)CN(CC(=O)O)c1ccc(Cl)cc1	83.3	90.7	1.6	.
COc1cccc(C2NC(C(=O)O)Cc3c2[nH]c2ccccc32)c1 (stereo unspecified)	107.0	77.0	-12.9	121.5
CC(=NCC1CCNCC1)C1=C(O)CC(C)(C)CC1=O	92.7	86.5	.	104.7
CCOc1ccccc1CNC(=O)c1ccc2c(c1)sc1nc(-c3cccc(OC)c3)cn12	118.5	82.2	.	113.9
COc1ccc(NC(=O)Nc2ccccc2OCc2cc(=O)n3ccccc3n2)c(OC)c1	97.9	88.4	.	111.1
COCCN1C(=O)C=CC1=O	63.0	59.0	-8.6	.
CC(NC(=O)CSc1ccccc1C(=O)O)C1CC2CCC1C2 (stereo unspecified)	101.5	96.5	-25.7	.
Cc1ccc(-n2ncc3c(NC4CCCCC4)ncnc32)cc1	93.1	93.5	.	98.4

Grouped by structure, those above with a CF3 group.
SMILES	Sa growth inh	Sa growth inh second temp	HCMV NEC inh	GIV-Gai inh
COC(=O)C(O)(CC(=O)Nc1ccc(OC(F)(F)F)cc1)C(F)(F)F (stereo unspecified)	94.8	102.5	2.8	101.1
OC(CNCCNc1nccc(C(F)(F)F)n1)c1ccccc1 (stereo unspecified)	86.7	95.4	-0.2	109.7

Next entries follow:
SMILES	Sa growth inh	Sa growth inh second temp	HCMV NEC inh	GIV-Gai inh
Cc1ccccc1C(=O)NC1(C(F)(F)F)C(=O)Nc2c1c(=O)[nH]c(=O)n2CCc1ccccc1 (stereo unspecified)	106.8	89.5	.	97.8
COc1ccc(N(C(C)=O)S(=O)(=O)c2ccc(C)cc2)cc1	91.6	86.9	-6.4	.
Cc1ccc(N(C)C(=O)C2CCN(S(=O)(=O)c3ccc4c(c3)CCCN4C(=O)C3CCC3)CC2)cc1	127.5	88.2	.	104.5
Cc1ccc(N2C(=O)c3n[nH]c(C)c3C2c2ccc(Cl)cc2)cc1 (stereo unspecified)	109.9	84.5	-21.7	101.2
Cc1nc(CS(=O)(=O)c2ccc(Cl)cc2)sc1C(=O)O	100.3	108.8	0.1	98.9
CCOc1ccc(Br)cc1C(=O)Nc1c[nH]c(=O)[nH]c1=O	112.9	92.9	-15.6	102.1
CCN(CC1COc2ccccc2O1)S(=O)(=O)c1cccs1 (stereo unspecified)	107.1	81.9	-19.5	.
CC1Sc2cc(-c3ccc(Br)cc3)cn2C1=O (stereo unspecified)	123.4	89.8	-21.0	.
CCc1ccc(CNC(=O)c2ccc3c(Cl)c4c(nc3c2)CCCC4)cc1	107.6	89.9	-22.7	103.0
Cc1ccc(C2=Nc3ccccc3NC(=O)C2)cc1C	.	.	-16.5	101.7
CC1c2cccn2CCN1S(=O)(=O)c1ccccc1 (stereo unspecified)	95.2	94.6	-10.5	.
O=C(Nc1ccccc1)NC1CS(=O)(=O)CC1O (stereo unspecified)	82.0	95.0	-0.4&-18.6	110.1&100.7
CCOc1ccc(NC(=O)COc2ccc(S(=O)(=O)NC3CCCCC3)cc2)cc1	85.6	88.6	-47.7	106.7
O=C(c1cccc(N2C(=O)CCS2(=O)=O)c1)N1CCCc2ccccc21	.	.	-26.2	103.9
CCOc1ccc(CCNC(=O)c2cn(-c3ccc(OC)cc3)c(=O)c3ccccc23)cc1OCC	111.5	97.3	.	105.6
c1cncc(-c2nnc3sc(-c4ccc5c(c4)OCCO5)nn23)c1	.	.	-9.1	100.5
CCOC(=O)c1ccc(NC(=O)Nc2c[nH]c(=O)[nH]c2=O)cc1	88.6	104.1	.	115.1
COc1ccc(CC(=O)Nc2cc3c(cc2SC2CCCCC2)n(C)c(=O)n3C)cc1OC	.	.	-31.0	99.2
Cc1ccccc1-c1nc(CN2CCC(C(=O)NCc3ccccc3Cl)CC2)c(C)o1	101.7	87.8	-28.0	102.3
Cc1ccc(NC(=O)N2CCN(S(=O)(=O)c3ccc4c(ccn4C)c3)CC2)c(Cl)c1	.	.	-18.5	106.4
CCOC(=O)c1ccc(-n2c(N)c(C(=O)NCC3CCCO3)sc2=S)cc1 (stereo unspecified)	96.1	89.2	-77.5	102.4
Clc1cccc(-c2cnc(CSc3nnc(C4CC4)n3-c3ccccc3)o2)c1	99.9	87.6	-14.5	.
COc1ccc(-c2cc(C(=O)NC(C)c3ccccc3)c3cc(C(C)C)ccc3n2)cc1 (stereo unspecified)	105.7	90.3	.	101.2
O=C(CCS(=O)(=O)c1nc(-c2cccs2)cc(C(F)(F)F)n1)Nc1cc(Br)ccc1O	15.4	16.0	-26.8	105.4
Cc1c(CCNC(=O)c2ccc(Br)o2)sc2nc(-c3ccc(F)cc3)nn12	148.7	102.5	.	100.7
Next part:
SMILES	Sa growth inh	Sa growth inh second temp	HCMV NEC inh	GIV-Gai inh
CCOC(=O)c1cccc(NC(=O)NC(C)c2c(-n3cccc3)sc3c2CCN(C)C3)c1 (stereo unspecified)	106.8	67.3	.	125.0
Cc1ccc(CNc2oc(C)nc2C#N)cc1	88.3	83.6	-13.9	.
COc1cc(C(N)=O)ccn1	100.2	92.5	-3.7	99.4
CCC(Sc1nc2cc(OC)c(OC)cc2c2nc(CCn3nc(C)cc3C)nn12)C(=O)NCc1ccco1 (stereo unspecified)	95.0	85.4	-27.5	103.9
CCN(CCC#N)c1ccc(/C=C(\C#N)C(=O)NC(C)C)c(C)c1	89.8	60.8	-76.7	.
CCCCN(CC)C(=O)Cn1c(=O)n(-c2ccc(OCC)cc2)c(=O)c2c3c(sc21)CCC3	96.0	87.3	-14.4	103.1
COc1ccc(C2=NOC(C(=O)N(C)C3CCCCC3)C2)cc1 (stereo unspecified)	113.1	89.4	-20.5	101.0
CCSc1ncc(Cl)c(C(=O)Nc2ccc(S(=O)(=O)N3CCCCC3)cc2)n1	115.7	90.9	-10.4	98.3

Whole records, looked up by structure.
COc1ccc(C2=NOC(C(=O)N(C)C3CCCCC3)C2)cc1 (stereo unspecified) is entered as Sa growth inh = 113.1; Sa growth inh second temp = 89.4; HCMV NEC inh = -20.5; GIV-Gai inh = 101.0
CCCCN(CC)C(=O)Cn1c(=O)n(-c2ccc(OCC)cc2)c(=O)c2c3c(sc21)CCC3 is entered as Sa growth inh = 96.0; Sa growth inh second temp = 87.3; HCMV NEC inh = -14.4; GIV-Gai inh = 103.1
CCC(Sc1nc2cc(OC)c(OC)cc2c2nc(CCn3nc(C)cc3C)nn12)C(=O)NCc1ccco1 (stereo unspecified) is entered as Sa growth inh = 95.0; Sa growth inh second temp = 85.4; HCMV NEC inh = -27.5; GIV-Gai inh = 103.9
